Rce1 inhib = yeast Rce1p protease inhibitors, primary screen, biochemical, fluorescence, cell-free homogeneous | 290,000 compounds, 0.27% hits | CAAX prenyl protease 2 (Saccharomyces cerevisiae (strain ATCC 204508 / S288c)), Q03530 | calls only | AID 2563, 2010 | yeast membranes, quenched prenylated peptide cleavage fluorescence;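 active means fall in fluorescence gain of 50% or more versus controls, with final raw signal at or below 3038400; inconclusive means same 50% fall but final raw signal above 3038400; inactive means fall in fluorescence gain under 50%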;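 further: plate controls were neutral control wells for no effect and wells lacking membranes for full effect; tested at 10 µM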
Target sequence (Q03530 whole entry, looked up): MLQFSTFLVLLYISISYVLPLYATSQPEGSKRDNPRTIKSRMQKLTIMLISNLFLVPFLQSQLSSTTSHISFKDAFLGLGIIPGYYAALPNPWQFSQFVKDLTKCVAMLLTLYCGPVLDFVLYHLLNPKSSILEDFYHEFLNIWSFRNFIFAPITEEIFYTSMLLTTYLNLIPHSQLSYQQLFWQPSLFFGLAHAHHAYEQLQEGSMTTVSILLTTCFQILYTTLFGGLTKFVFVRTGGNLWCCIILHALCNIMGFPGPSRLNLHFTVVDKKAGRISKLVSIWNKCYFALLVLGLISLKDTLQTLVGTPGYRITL
CSC inhib = cancer stem cell viability inhibitors, primary screen, luminescence; cancer stem cell-like cells viability; inhibition, % at 7.5 µM; 300,000 compounds, 1.1% hits; AID 2717, 2010;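 active means mean at 75% or more and at least half the replicates too; inconclusive means mean and replicates disagree; tested in HMLE shEcad cells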;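 further: 0% = median of negative and 100% = median of positive control wells; the first replicate is given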
UUG fidelity = modulators of yeast start codon fidelity, primary screen, whole organism, S. cerevisiae, single point, plate reader; S. cerevisiae UUG-firefly luciferase reporter, luminescence/redox ratio; activity score, % at 18.7 µM; 350,000 compounds, 0.13% hits;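 active means replicate mean at a twofold rise or more, about +100% in these data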;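 further: firefly luciferase made from a UUG start codon reports start codon fidelity; reporter light over untreated wells divided by growth signal over untreated wells; some hits fall short of that in this replicate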
Env fusion inh = inhibitors of HIV-1 Env-driven cell-cell fusion, primary screen, HeLa-JRFL effector, CEM21 target cells, luciferase; AID 651610, 2012; 360,000 compounds, 1.1% hits; inhibition, % at 12.3 µM;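 active means mean replicate inhibition score of at least 50 and every replicate individually at or above 50; inconclusive means only one of the two criteria met; inactive means mean below 50 and not all replicates reaching 50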;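 further: 0% = plate neutral controls and 100% = maraviroc near 300 nM; one replicate is shown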
PABP polyA inh = PABP poly(A) RNA binding inhibitors, primary screen, biochemical, fluorescence polarization, uHTS. 290,000 compounds, 1% hits. inhibition, % at 35 µM. Polyadenylate-binding protein 1 (Homo sapiens), P11940;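 active means 50% or more with normal probe brightness, or confirmed in later tests; inconclusive means above 50% with abnormal brightness, or retests that disagree; inactive means below 50% or failed in later tests; about a fifth of its hits are not listed in these tables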;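 further: calls also rest on retests at 20 µM and on dose response follow-up; controls were probe without protein and protein plus probe with vehicle; some compounds called inactive have numbers as strong as hits; many hits fall short of the cut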
MT1-MMP act inh = blockers of MT1-MMP proenzyme processing, primary screen, HT1080 RFP-PRO-GFP cells, GFP/RFP fluorescence; Matrix metalloproteinase-14 (Homo sapiens), P50281; GFP/RFP ratio fluorescence, overnight; percent of plate control window, DMSO zero; GFP/RFP ratio change, % at 20 µM; 360,000 compounds, 0.061% hits; AID 651647, 2012;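 active means GFP/RFP ratio change of at least 30% with cell ATP level not reduced by more than half and red fluorescence within 50% of control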; further: strong numbers were not always called active
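Assay system: RFP-PRO-GFP reporter HT1080 cells; read-out basis: GFP/RFP fluorescence ratio; benchmarks: DMSO wells and RFP-L50D-GFP cells; doses: 20 µM single dose, 1% DMSO; schedule: overnight cell settling, then overnight compound exposure, 37 °C, 5% CO2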
eIF4H inh = human eIF4H binding inhibitors, primary screen, translation initiation inhibitor project, biochemical, uHTS, fluorescence polarization. AID 2012, 2009. 290,000 compounds, 0.94% hits. eIF4H fluorescence polarization binding assay. Eukaryotic translation initiation factor 4H (Homo sapiens), Q15056. inhibition, % at 35 µM;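 active means 50% or more with normal probe brightness, or confirmed in later tests; inconclusive means above 50% with abnormal brightness, or retests that disagree; inactive means below 50% or failed in later tests; about a fifth of its hits are not listed in these tables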;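 further: calls also rest on retests at 20 µM and on dose response follow-up; 0% = protein and probe with vehicle and 100% = probe without protein; strong numbers were not always called active; many hits fall short of the cut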
eIF4H inh retest = recorded beside eIF4H inh, whose call it bears; inhibition, %; compound at 20 µM; confirmation average;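 mean of two retest wells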
PABP polyA inh retest = further read-out of PABP polyA inh, marked with its call; inhibition, %; compound at 20 µM; confirmation repeats;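 mean of two retest wells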
MT1-MMP act inh RFP = also measured in MT1-MMP act inh; calls as there; RFP signal change, %; measured here: RFP expression control read;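 0 = vehicle wells; hits needed this value within 50% of zero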
An asterisk follows results filed as active; i = inactive; ? = inconclusive; nt = no result given.

SMILES	Rce1 inhib	CSC inhib	UUG fidelity	Env fusion inh	PABP polyA inh	MT1-MMP act inh	MT1-MMP act inh RFP	eIF4H inh	others
Cn1c(=O)cc(SCC(=O)Nc2cccnc2)c2ccccc21	i	17	-19	15	-6	5	0	-3
OC1CCC(Nc2ccn3nc(-c4cccc(OCc5ccccc5)c4)cc3n2)CC1 (configuration not stated)	nt	nt	-14	20	nt	3	-2	nt
O=C1CCCN1CC1CCN(Cc2nc(CC3CC3)no2)CC1	i	nt	-7	-61	-4	3	-2	0
O=C(Nc1cccc(Cl)c1N1CCOCC1)c1ccc([N+](=O)[O-])o1	i	nt	-9	32	12	-3	-9	-5
Cc1ccc(CS(=O)(=O)CCC(=O)NCc2cccs2)cc1	i	-4	nt	7	-6	0	3	0
COc1ccc(/C(=N/OC(C)=O)c2nccc3cc(OC)c(OC)cc23)cc1OC	i	4	-4	-4	2	4	4	4
COc1ccc(NC(=O)N2CCCCC2c2cccnc2)cc1 (configuration not stated)	i	-1	-19	0	3	-2	4	3
CC1=CC(C)(C)NC(=S)N1c1ccc(N(C)C)cc1	nt	nt	-18	-10	nt	2	-4	nt
Cc1ccc(Sc2sc(=O)n(C)c2S(=O)(=O)c2ccc(C)cc2)cc1	i	10	nt	5	-23	1	-11	9
Cn1cnnc1SC(C(=O)Nc1ccc(F)cc1)c1ccccc1 (configuration not stated)	i	-14	-11	nt	8	-3	-3	-4
CCC1(C)Cc2c(sc3c2c(=O)n(C)c2nnc(SCc4ccccc4)n32)CO1 (configuration not stated)	i	-7	nt	-7	-13	4	-6	-8
Cc1nn(-c2ccc(Cl)cc2)c(=O)c2c(C)noc12	i	-5	-4	21	-6	-3	0	-5
COc1ccc(OC)c(C(=O)NC2CCSc3ccccc32)c1 (configuration not stated)	i	-5	-20	3	9	-3	0	-2
Cc1ccc(N=C(N(C)C)P(=O)(N(C)C)N(C)C)c(C)c1	i	-7	nt	13	3	1	4	2
O=C(Nn1cnnc1)c1ccccc1Cl	i	-7	-13	-6	0	2	5	0
Cc1ccc(C)c2[nH]c(=O)c(CCNC(=O)CCc3ccccc3)cc12	i	-7	11	?	-4	-2	-3	-16
O=C(O)c1ccc(CSc2nc3ccc(NC(=O)c4ccccc4C(=O)O)cc3s2)cc1	i	nt	-2	10	2	-3	-2	43
Cc1occc(=O)c1O	i	5	5	-7	-6	-3	2	-5
Cc1ccc(Cc2cnc(N)s2)o1	i	-8	-16	nt	47*	-5	2	66*	eIF4H inh retest=94*;PABP polyA inh retest=57*
CCCCc1cc(C)c(S(=O)(=O)c2ccccc2C)c(=O)[nH]1	i	1	-13	1	8	1	-2	2
COc1cccc(CN2CCN(Cc3nc(-c4cccc(F)c4F)oc3C)CC2=O)c1	i	-7	nt	-6	-1	-6	0	-8
Fc1ccccc1CNc1nc(-c2cccnc2)nc2ccccc12	i	9	-11	14	-14	-4	-6	-9
c1ccc(Cc2nnc(N3CCCCC3)c3ccccc23)cc1	i	-12	nt	-2	4	1	-1	-11
COc1cccc(NC(=O)N(C)C[C@@H]2Oc3cc(Br)ccc3S(=O)(=O)N([C@@H](C)CO)C[C@H]2C)c1	nt	nt	-4	-5	nt	-3	1	nt
O=C(NCCN1CCN(c2ccccc2F)CC1)c1ccc2nc3ccccc3c(=O)n2c1	i	nt	0	-10	-5	-1	-5	-11
COc1ccc2nc(NC(=O)CN(c3ccc(C)cc3)S(=O)(=O)c3c(C)nn(C)c3C)sc2c1	i	7	9	-135	2	0	-6	4
O=C(NCC1CCCO1)C(c1cccs1)N(Cc1ccccc1)C(=O)c1ccc(-c2ccccc2)[nH]1 (configuration not stated)	i	19	nt	1	4	-44	-31	-11
CC(C)(C)NC(=O)CSCc1c(Cl)cccc1Cl	i	-15	nt	nt	-6	5	0	-5
Cc1cc(C)c2cc(C#N)c(NCCNC(=S)NCCCN3CCOCC3)nc2c1	i	-3	-27	9	4	10	3	-2
NC(=O)c1ccsc1NC(=O)CCS(=O)(=O)c1ccc(F)cc1	i	0	-9	15	nt	-4	-14	nt
COC(=O)CSc1nnc(CNC(=O)c2ccccc2OC)n1C	i	-1	-10	-19	15	0	8	3
Cc1ccc(Nc2nc(C)c(CCC(C)C)c(=O)[nH]2)cc1	i	25	-1	nt	-8	2	4	-8
Cc1cc(CNC(=O)COc2ccccc2)c2ccccc2n1	i	nt	nt	2	2	4	-18	2
COc1cccc(-n2nc(C(=O)N3CC(C)CC(C)C3)c3ccccc3c2=O)c1 (configuration not stated)	i	nt	0	-5	-3	7	-5	4
CCNc1nc(Oc2ccc(=O)n(-c3ccccc3)n2)nc(N(C)C)n1	i	-7	3	nt	2	7	4	0
Cc1csc(=O)n1CCC(=O)OCC(=O)NCc1ccc(Cl)cc1Cl	i	-2	-15	3	nt	4	5	nt
COc1ccc2nc(NNC(=O)C3COc4ccccc4O3)sc2c1 (configuration not stated)	i	1	-11	26	4	5	7	10
CCn1c(O)c(/C=N/N=C/c2ccccc2)c2ccc(C3=NNC(=O)CC3)cc21	i	nt	-23	-68	78	-12	2	129	eIF4H inh retest=49;PABP polyA inh retest=3
COc1ccc(C(C)=O)cc1CSCCC(=O)O	i	4	-17	nt	-4	8	8	12
COCCCN1C(=O)C2C(C(=O)Nc3cccc(Cl)c3)C3C=CC2(O3)C1C(=O)NC1CCCCC1 (configuration not stated)	i	-17	-18	nt	-9	0	0	-10

As a working copy, two of the compounds above.
SMILES	Rce1 inhib	CSC inhib	UUG fidelity	Env fusion inh	PABP polyA inh	MT1-MMP act inh	MT1-MMP act inh RFP	eIF4H inh	others
COc1cccc(CN2CCN(Cc3nc(-c4cccc(F)c4F)oc3C)CC2=O)c1	i	-7	nt	-6	-1	-6	0	-8
Fc1ccccc1CNc1nc(-c2cccnc2)nc2ccccc12	i	9	-11	14	-14	-4	-6	-9

New compounds follow
SMILES	Rce1 inhib	CSC inhib	UUG fidelity	Env fusion inh	PABP polyA inh	MT1-MMP act inh	MT1-MMP act inh RFP	eIF4H inh	others
CCOC(=O)C1=C(CSCC(=O)OC)NC(=O)NC1c1cc(C)ccc1C (configuration not stated)	i	nt	nt	6	4	5	5	1
Cc1nc2ccccn2c1C(=O)NN=C1CCN(C)CC1	i	-2	nt	-1	8	-1	-1	5
O=C(CCOc1ccccc1)OCC(=O)c1cc2ccccc2o1	i	9	-11	nt	6	0	10	-7
COc1cccc(C2/C(=C(\O)c3ccc4c(c3)OCCO4)C(=O)C(=O)N2c2nnc(C)s2)c1 (configuration not stated)	i	-25	-13	-13	11	-5	3	-5
C=CCN(CC=C)S(=O)(=O)c1ccc2nc(NC(=O)C(C)C)sc2c1	nt	66	-11	nt	3	-1	-11	3
Cn1cc([N+](=O)[O-])cc1-c1nc2ccccc2n1C	i	-16	-9	-13	-4	0	-2	-11
O=C(CCCN1C(=O)c2ccccc2C1=O)NCCCN1CCOCC1	i	nt	-11	?	6	1	4	-8
CCOc1ccc(CCNC(=O)C2CCN(S(=O)(=O)c3ccc(C)cc3)CC2)cc1OCC	i	11	-13	11	11	-3	3	-2
CCOC(=O)C1CCN(S(=O)(=O)c2cccc3nonc23)CC1	i	-1	-8	-2	-4	4	6	0
COCCCn1c(SCc2ccc(OC)cc2)nc2cc(OC)c(OC)cc2c1=N	i	-6	-10	57*	-7	9	5	-5
COc1ccc2c(c1)O/C(=C\c1sccc1C)C2=O	i	-12	-29	3	-8	-9	0	-1
CCOC(=O)c1c(NC(=S)Nc2ccc(Cl)cc2)sc2c1CCN(C)C2	nt	2	-9	-15	-10	-44	7	?
Cc1ccnc(NC(=O)c2cccc(NC(=O)COc3ccccc3)c2)c1	i	0	1	nt	5	5	-1	-21
C/C(Cl)=C\CSc1nnc2n(N)c(=O)c3ccccc3n12	i	4	-10	-31	0	-7	-3	-11
CCOC(=O)Cc1csc(NC(=O)CSc2nnc(C3CC3)n2C)n1	i	1	-7	nt	4	-7	-3	4
CN(CCc1ccccc1)C(=O)c1cccc(NC(=O)Cc2cccc(NC(=O)C3CCCN(C(=O)C4CCCC4)C3)c2)c1 (configuration not stated)	nt	nt	-6	42	nt	-1	-19	nt
COc1ccc2c(c1)C(C)=CC(C)(C)N2S(=O)(=O)c1ccc(NC(C)=O)cc1	i	61	-33	-69	7	11	-8	-3
CCN(CC)S(=O)(=O)c1ccc(C(=O)N(c2ccccc2)C2C=CS(=O)(=O)C2)cc1 (configuration not stated)	i	-10	nt	9	?	2	3	-2
O=C(CSc1nnc(NC(=O)c2c(F)cccc2Cl)s1)Nc1ccccc1F	i	2	-10	-6	21	-2	0	3
COCCCNCCCCOc1ccc(Br)cc1C	i	50	nt	-15	-6	-5	-1	4
CC(OC(=O)Cn1c(C(F)(F)F)nc2ccccc21)C(=O)N1CCCc2ccccc21 (configuration not stated)	nt	8	0	nt	-5	-2	1	-7
CCCCNC1C(CC)C(CCC)C(C#N)(C#N)C1(C#N)C#N (configuration not stated)	i	0	-23	nt	6	-7	-7	-3
CCN1C(=O)[C@@H]2[C@@H](c3ccc(-c4ccc5c(c4)OCO5)cc3)N3CCCC[C@@]3(C(=O)OC)[C@@H]2C1=O	i	-9	-3	5	nt	5	-7	nt
CCn1c(CNc2ccc(F)cc2)nnc1SCC(=O)Nc1ccc(OC)cc1	i	1	-19	-48	10	-1	0	-1
COc1ccc(C(=O)NNS(=O)(=O)c2ccccc2)cc1	i	-6	-8	-9	-2	0	1	-10
O=C(OCc1nnc(-c2ccccc2)o1)c1ccco1	i	-2	-14	nt	-9	-3	-3	-11
Cc1ccc(S(=O)(=O)Oc2ccc(/C=C(/NC(=O)c3ccccc3)C(=O)NCCC(=O)O)cc2)cc1	i	-12	22	9	15	2	7	-1
Cc1nc(CC(=O)NNS(=O)(=O)c2ccc3ccccc3c2)cs1	i	-10	-8	7	19	2	1	-12
Cn1c(C(C#N)C(=O)c2sc3ccccc3c2Cl)nc2ccccc21 (configuration not stated)	i	31	-9	-26	4	-17	-17	8
COc1cc(/C=N/NC(=S)Nc2cccc(C(=O)O)c2)cc(OC)c1OC	i	nt	-22	-11	7	1	1	1
C[C@@H](NC(=O)c1nc[nH]c1C(=O)NC1CCN(C(=O)OC(C)(C)C)CC1)c1ccccc1	nt	-13	6	-31	nt	2	-6	nt
COc1ccc(C(O)c2nc(-c3cccc(NC(C)=O)c3)cs2)cc1 (configuration not stated)	nt	nt	7	6	nt	2	1	nt
COCCNC(=O)COc1coc(CN2CCN(Cc3ccccc3)CC2)cc1=O	i	-5	4	9	-5	2	8	0
Cc1ccc2c(c1)/C(=C/c1ccccc1F)C(=O)N2	i	34	nt	-34	6	-5	-4	-4
Cc1c(O)cc2c(c1O)C(=O)CC(c1ccccc1)O2 (configuration not stated)	i	77*	2	nt	32	-7	-36	29
C[C@]12CC[C@@H]3c4ccc(O)cc4CC[C@H]3[C@@H]1C[C@@H](O)[C@@H]2O[C@@H]1O[C@H](C(=O)O)[C@@H](O)[C@H](O)[C@H]1O	i	-3	-4	-8	0	0	1	-3

High-throughput results from PubChem.
